ClpP mod – qHTS Assay for Activators of ClpP; 1.9% of 340,000 active; Potency, µM (titrated, usually from 57.5 µM), inactives show at the top dose activity change, negative = active; AID 651965, 2013; ATP-dependent Clp protease proteolytic subunit (Bacillus subtilis (strain 168)), P80244; purified B. subtilis ClpP, FRET peptide cleavage, 20 min; active = well fitted falling curve with a large enough effect; inconclusive = small, poorly fitted or top-dose-only effect; inactive = no such curve, though single readings can be large or run the other way; note: potency is the fitted concentration of half-maximal effect; the source files actives as falling curves though it sought activators and does not explain the sign; nearly all actives have a fitted effect of over 65% in size; many hits overshoot -100%
Target sequence (P80244 whole entry, looked up): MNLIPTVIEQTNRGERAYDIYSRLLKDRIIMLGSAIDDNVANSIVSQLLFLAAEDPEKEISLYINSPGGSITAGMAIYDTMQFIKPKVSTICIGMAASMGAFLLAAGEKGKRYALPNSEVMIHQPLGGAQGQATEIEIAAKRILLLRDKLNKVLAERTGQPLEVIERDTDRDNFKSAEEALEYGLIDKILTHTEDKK
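ClpP 10 microg/mL final, pH 8 Tris/KCl buffer with BSA, glycerol, Tween-20; compound pinned in; FRET-FV substrate; RT 20 min; Ex320/Em430; ΔFRET vs ADEP 5.8 microM, DMSO, no enzyme.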
gsp ag – gsp mutant agonism; 0.13% of 340,000 active; Potency, µM (doses to about 76.9 µM), for the others: at the highest dose activation (cAMP increase), hits mostly activators; AID 624287; gsp mutant cells, cAMP HTRF, 30 min; control for the full effect not named in the record; active = well fitted activation curve with a large enough effect; inconclusive = small, poorly fitted or top-dose-only effect, or another doubt; inactive = no such curve, though single readings can be large or run the other way; cell line not stated here;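 note: phosphodiesterase inhibitor Ro 20-1724 added with compounds to block cAMP breakdown; potency is the fitted concentration of half-maximal effect; nearly all actives have a fitted effect of over 60% in size; about a fifth of the inactives were tested at one dose only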
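Cells stably selected in G418 were plated at 2000/well, grown 16-24 hr, then given compounds in DMSO with the PDE inhibitor […] (300 uM solution added) for 30 min at 37C; cAMP was read by HTRF.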
D2 potentiator – positive allosteric modulators of human D2 dopamine receptor; 0.23% of 360,000 active; AID 624464; potentiation, % (test concentration not listed); P14416; DiscoveRx D2 beta-arrestin cells, luminescence, 90 min; 100% = 57 uM dopamine signal; active = potentiation of 50% or more; inconclusive = 30% to 50%; inactive = 30% or less;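 note: compound concentration not given in the record; tested on top of an EC20 dose of dopamine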
Target sequence (P14416 whole entry, looked up): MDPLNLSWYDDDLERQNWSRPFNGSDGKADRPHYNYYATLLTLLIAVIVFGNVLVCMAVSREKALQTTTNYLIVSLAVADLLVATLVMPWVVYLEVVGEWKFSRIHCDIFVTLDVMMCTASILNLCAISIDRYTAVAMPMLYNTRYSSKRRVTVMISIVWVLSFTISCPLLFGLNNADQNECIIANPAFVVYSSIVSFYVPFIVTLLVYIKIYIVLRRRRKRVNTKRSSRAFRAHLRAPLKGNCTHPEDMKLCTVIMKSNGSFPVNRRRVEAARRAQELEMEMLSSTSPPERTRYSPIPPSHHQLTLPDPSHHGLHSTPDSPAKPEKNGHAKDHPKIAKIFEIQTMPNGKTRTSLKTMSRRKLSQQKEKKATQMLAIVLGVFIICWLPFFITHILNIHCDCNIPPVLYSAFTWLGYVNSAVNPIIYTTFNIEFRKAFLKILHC
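D2 cells co-treated with compound plus 50 nM dopamine (EC20) for 90 min at 37 deg C to detect potentiation. Beta-arrestin recruitment was read as enzyme-fragment luminescence after 1 h at ambient temperature. Full response was set by 57 uM dopamine.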
TRPV1 potentiator – enhances activation of the human vanilloid receptor TRPV1; Q8NER1; TRPV1-expressing cells, Fluo-8 calcium influx, capsaicin EC20 potentiation; host cell line not named in the record; control for the full effect not named in the record; potentiation, % at 8.33 µM; 0.02% of 320,000 active; active means potentiation above 80%; inconclusive means 30% to 80%; inactive means below 30%; note: 0% is about no effect
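Fluo-8 calcium influx in TRPV1-expressing cells, kinetic read (ex 480/em 520 nm). Compound added and read 3 min for agonist activity, followed by capsaicin at EC20 final and 2 min further read for enhancement.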
Menin-MLL FL inh – inhibitors of human menin-MLL interaction, wild-type MLL peptide. Fluorescence polarization, fluorescein-MLL peptide displacement from menin. FP activity change, % at 61.4 µM. 290,000 tested, under 10 active. AID 1766; inconclusive = falling polarisation curve, or a change in total fluorescence; inactive = total fluorescence flat and polarisation flat or rising; no compound was filed as active; the % refers to the polarisation; negative = inhibition;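 note: % of control where 0% means no effect; inhibitors lower the polarisation; unlabelled MLL peptide was the positive control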
Sfp inh – Sfp phosphopantetheinyl transferase inhibition; 3.5% of 310,000 active; Potency, µM, inactives show max response, negative = inhibition, actives largely listed as inhibitors; Biochemical Sfp PPTase activity, qHTS; Q9F4F7; active = well fitted inhibition curve with a large enough effect; inconclusive = small, poorly fitted or top-dose-only effect, or another doubt; inactive = no such curve, though single readings can be large or run the other way;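 note: the enzyme is Sfp with the accession as filed and its product quenches rhodamine fluorescence; potency is the fitted concentration of half-maximal effect; 0% = enzyme reaction without inhibitor and -100% = no enzyme wells; top concentration of the series not given in the record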
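Fluorescence-quenching assay: 15 nM Sfp-PPTase preincubated 15 min at room temperature with compound, then 5 uM rhodamine-CoA and 12.5 uM BHQ-2-labelled YbbR peptide added. Fluorescence (ex 525/em 598 nm) read at start and after 30 min; difference gives rate.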
gsp antag – antagonizes gsp, the McCune-Albright syndrome mutation; gsp-mutant cells, cAMP HTRF, 30 min; control for the full effect not named in the record; Potency, µM (top dose mostly 76.9 µM), without a hit: top-dose activity change, negative = inhibition, most hits filed as inhibitors; 0.4% of 340,000 active; active = falling curve of any shape with a large fitted effect; inconclusive = falling curve, mostly with a smaller effect; inactive = flat or rising curve; cell line not stated here;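 note: intracellular cAMP measured with PDE inhibitor Ro 20-1724 present during compound exposure; potency is the fitted concentration of half-maximal effect; % is set by controls: 0 for no effect and ±100 for the full control effect; nearly all actives have a fitted effect of over 65% in size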
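Cells in G418 medium, seeded 16-24 h, 37C; buffer exchange to DPBS + 1 mM CaCl2, 0.5 mM MgCl2, 0.05% BSA; cpds in DMSO + […] (300 uM stock), 30 min 37C; HTRF cAMP detection.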
Active calls of the source: *; ? = inconclusive; nt = not tested or not shown; & = joins results of further samples; [ ] = remark or other dose.

SMILES	ClpP mod	gsp ag	D2 potentiator	TRPV1 potentiator	Menin-MLL FL inh	Sfp inh	gsp antag
COc1ccc(N2CCN(C(=O)CNC(=O)c3cccs3)CC2)cc1	-2.0%	?	-13	-4	4.8	8%	-10%
CCOc1ccc(S(=O)(=O)N2CCC(C(=O)NC3CCCC3)CC2)cc1	-3.9%	7%[15.4 µM]	-10	2	nt	3%	-4%
CC12CCC(=O)N1C(C(=O)Nc1nc(-c3cc(F)ccc3F)cs1)CS2 (stereo unspecified)	nt	-2%[15.4 µM]	0	-2	nt	nt	-7%
C/C(=N\NC(=O)c1ccco1)c1cccc2ccccc12	nt	-26%	-7	6	-1.2	-1%	-2%
COc1ccc(OC)c(N/C(C)=C/C(=O)c2ccccc2)c1	-0.7%	-18%	-5	4	1.6	-6%	-3%
CNc1ccccc1C(C)(C)c1cc(-c2cccc(OC)c2)no1	nt	6%	5	-16	?	1%	-17%
Cc1nn(-c2ccccc2)cc1C(=S)Nc1ccccc1	nt	-1%	4	-14	0.8	5%	-12%
Cc1c(C(=O)N(Cc2ccc(N(C)C)cc2)CC2CCCO2)oc2ccccc12 (stereo unspecified)	0.2%&0.1%	28%	-5	-1	nt	-12%	?
O=C(NCC1CCCO1)c1cc(-c2ccccc2)nc2ccc(Br)cc12 (stereo unspecified)	-17%	?	-7	-14	nt	-1%	0%
O=[N+]([O-])c1ccc2[nH]c3c(c2c1)CCCC3O (stereo unspecified)	nt	-15%[15.4 µM]	-5	-6	0.7	10%	-13%
COc1ccc(NC(=S)N2CCN(S(C)(=O)=O)CC2)cc1OC	-1.8%	11%[15.4 µM]	2	-1	-1.1	-2%	2%
Cc1cccc(NC(=O)NC(=O)c2ccccc2)n1	-9.4%	-2%[15.4 µM]	7	7	3.6	20%	-2%
C=CCN(CC=C)C(=S)NC(=O)/C=C/c1ccccc1	0.7%	-19%	-18	2	0.6	3%	5%
O=C(CN1c2cccc3cccc(c23)S1(=O)=O)NCCc1ccccc1	-5.9%	8%	-4	nt	nt	nt	6%
Cc1nc(-c2ccccc2)nn1-c1ccc([N+](=O)[O-])cc1	nt	15%[15.4 µM]	-1	nt	nt	nt	2%
CCCCCC(O)(CCCCC)C(=O)NNc1ccccc1	-8.6%	11%	-4	-15	1.7	14%	4%
COc1cccc(C(C(=O)NC(C)(C)C)N(C(=O)CCC(=O)Nc2cc(C)on2)C(C)(C)C)c1OC (stereo unspecified)	-1.4%	5%	-21	-4	7.2	13%	1%
Cc1[nH]nc2nc(SCC(=O)NC3CCCCC3)n(-c3ccc(Br)cc3)c(=N)c12	?	25%	-23	2	-3.5	-17%	4%
O=C(O)CCn1cc(C2CC(c3ccccc3)=NN2c2ccccc2)c(-c2ccccc2)n1 (stereo unspecified)	nt	?	3	-6	?	-3%	-21%
CC(=O)/C(=N/Nc1ccc(Br)cc1)N1CCCc2ccccc21	1.2%	16%[15.4 µM]	-8	1	-1.7	-6%	-13%
Nc1nc2ccc(C(=O)NCCOC(=O)C3CCCCC3)cc2s1	-5.8%	3%	-13	-5	-0.7	-4%	9%
NCCN1CCN(S(=O)(=O)c2ccc([N+](=O)[O-])cc2)C=C1c1ccc(Cl)cc1	0.5%	-2%	1	0	nt	nt	10%
Cc1ccc2c(CN3CCC(C)CC3)cc(=O)oc2c1C	-1.3%	1%	-21	4	-12	5%	-11%
CN(/N=C/c1ccc2c(c1)OCO2)c1nc(N2CCOCC2)nc(N2CCOCC2)n1	nt	0%[15.4 µM]	0	1	-1.0	15%	-1%
Cc1cc(NC2=CC(=O)C(=O)c3ccccc32)no1	-2.5%	-1%	2	nt	nt	nt	?
O=C(NC1CCCCC1)C(c1ccccc1F)N(Cc1ccco1)C(=O)Cn1nnc2ccccc21 (stereo unspecified)	1.3%	11%	-11	1	-1.8	-4%	2%
O=C1[C@H](Cc2ccccc2)NCC=CC[C@@H](c2ccc(Cl)cc2)N1Cc1ccc(Cl)cc1	-1.3%	nt	-9	nt	nt	nt	-2%
Cn1c(=O)c2ncn(CC(=O)Nc3nc(-c4ccc(Cl)cc4)cs3)c2n(C)c1=O	-2.0%	2%	-3	8	7.6	15%	-7%
Cc1cc(=O)oc2cc(OCC(=O)OCc3nnc(-c4ccccc4)o3)ccc12	145%	-30%	-2	6	-1.0	3%	-22%
COCCNC(=O)C12CC3CC(CC(Cl)(C3)C1)C2	-3.0%	-13%[15.4 µM]	-6	-1	0.4	-15%	9%
O=C(NCC1CCCN1S(=O)(=O)c1cccs1)c1cccc([N+](=O)[O-])c1 (stereo unspecified)	-1.7%	27%	8	10	nt	nt	-4%
CCC1NC(=O)c2cc3ccccc3cc2-n2c1nc1cc(C)cc(C)c1c2=O (stereo unspecified)	22%	13%	2	nt	nt	nt	nt
CN(C(=O)c1cccc(NC(=O)Cc2ccc(NC(=O)C3CCN(C(=O)C4CC4)CC3)cc2)c1)C1CCCC1	0.7%	nt	-9	nt	nt	nt	11%
O=C(CSc1ncn[nH]1)c1ccccc1	0.5%	6%	-6	4	-0.3	56µM*	7%
Cc1nc(N2CCOCC2)[nH]c(=O)c1C(O)C(Cl)(Cl)Cl (stereo unspecified)	2.1%	-29%	-8	23	3.3	-10%	10%
Cc1ccc2nc(SCC(=O)Nc3ccc4c(c3)OCCO4)nc(=O)n2c1	-1.2%	50%[15.4 µM]	-7	-9	nt	nt	9%
O=C(O)c1ccc([N+](=O)[O-])cc1Sc1ccsc1	-2.4%	22%	-8	nt	nt	nt	-10%
Cn1nnc(NC(=O)c2cccc(OCc3ccccc3)c2)n1	-1.1%	-3%	-10	0	0.5	5%	10%
Cn1nc(C(=O)Nc2c(-c3ccccc3)nc3sccn23)c2ccccc2c1=O	-0.3%	-10%	-6	19	-1.7	40µM*	-4%
COc1ccccc1N1CCN(C(=O)C2CCN(S(=O)(=O)c3ccc(Cl)cc3)CC2)CC1	1.0%	-49%[inhibitor]	3	0	3.6	-3%	-17%
COc1ccc(NC(=O)CSc2nnc3ccc(-c4ccccn4)nn23)c(OC)c1	-1.7%	5%	-8	18	nt	nt	-2%
CCOC(=O)c1nn(-c2ccc(OCC)cc2)c(C)c1C(C)=O	-6.7%	0%[15.4 µM]	11	5	-0.7	7%	0%
O=C1C2CC=CCC2C(=O)N1c1nc2n(n1)C(c1ccccc1)CC(c1ccccc1)N2 (stereo unspecified)	-2.6%	-34%[inhibitor]	3	-14	1.5	11%	-10%[15.4 µM]
Cn1c(CNC(=O)CNS(=O)(=O)c2ccccc2)cc(=O)n(C)c1=O	-3.9%	43%	-8	-4	nt	8%	1%
CCOC(=O)C1CCN(C(=S)Nc2cccc(C)c2C)CC1	-0.7%	2%	-15	-3	0.8	-7%	13%
Cc1cc(Cl)ccc1OCCCC(=O)NCc1ccncc1	70%	-43%[inhibitor]	9	-11	3.2	-14%	3%
CCC(C)NC(=O)C(=O)NC1CCCC1 (stereo unspecified)	nt	-3%[15.4 µM]	-8	-17	2.6	25%	-1%
O=C1/C(=C/c2cccnc2)N=C2CCCCCN12	-2.6%	-23%	-4	0	-12	11%	7%
CCOc1cc(/C=C2\C(=O)ON=C2c2ccccc2)cc(Br)c1O	nt	7%[15.4 µM]	-9	3	?	79µM*	-7%
O=C(O)COc1c(Cl)cc(/C=C2/NC(=O)NC2=O)cc1Br	nt	-44%[15.4 µM]	0	-28	3.6	19%	1%

(further entries)
SMILES	ClpP mod	gsp ag	D2 potentiator	TRPV1 potentiator	Menin-MLL FL inh	Sfp inh	gsp antag
COc1cccc(Nc2nc3ccccc3nc2-n2nc(C)cc2C)c1	-9.3%	16%	-8	nt	2.5	?	8%
Cc1cc(N2C(=O)C3C4CC(c5ccccc5)C(C4)C3C2=O)no1 (stereo unspecified)	nt	-12%[15.4 µM]	-3	1	-5.2	24%	4%
Cc1c(Cl)cccc1-n1c(-c2cccnc2)n[nH]c1=S	0.1%	?	-2	?	3.4	?	-8%
Cc1cc(C)c(Nc2n[nH]c(=S)s2)cc1C	1.3%	-11%	-19	nt	nt	nt	nt
Cc1sc2nc(SCC(=O)N3CCOCC3)[nH]c(=O)c2c1C	-5.4%	9%	-9	-12	3.8	8%	-7%
Cc1ccccc1NC(=O)COc1coc(CN2CCN(Cc3ccccc3)CC2)cc1=O	-1.8%	-9%	-13	-3	nt	nt	0%
CCOC(=O)C1=C(CSc2nc3c(cc2C#N)CN(C)CC3)OC(N)=C(C#N)C1c1ccccc1 (stereo unspecified)	-17%	8%	-9	7	?	?	-4%
CCn1cc(CNC(=O)C2CCC(=O)N(C3CCCCCC3)C2)cn1 (stereo unspecified)	-2.9%	15%[15.4 µM]	-7	1	nt	7%	-2%
Cc1cc2ncn(-c3nnnn3-c3ccccc3)c2cc1C	0.2%	14%	-5	-17	-3.9	1%	0%
CCCSc1nc2c(=O)[nH][nH]c(=O)c2n1Cc1ccccc1	2.4%	-5%	-21	-5	-0.9	14%	-16%
NC(=O)c1cc(NC(=O)CCNS(=O)(=O)c2cccc(C(F)(F)F)c2)cc(C(N)=O)c1	0.7%	7%[15.4 µM]	-5	-4	-6.9	16%	2%
C=CCn1c(SCC(=O)Nc2cccc(OC)c2)nnc1-c1cccnc1	2.2%	2%	-4	12	3.8	0%	-2%
CC(C)NS(=O)(=O)c1ccc(OCC(=O)NC(C)c2ccccc2)cc1 (stereo unspecified)	-0.3%	14%	-6	?	0.1	18%	7%
CC(C1CC1)N(C(=O)c1ccccc1[N+](=O)[O-])c1ccccc1 (stereo unspecified)	nt	?	-5	-10	-8.3	13%	7%
COc1ccccc1CNS(=O)(=O)c1ccc2c(c1)NC(=O)C(C)S2 (stereo unspecified)	1.7%	-18%	-1	14	2.0	10%	1%
Cn1cccc1C(=O)OCC(=O)Nc1ccc2c(c1)OCCO2	1.1%	-2%[15.4 µM]	-10	nt	nt	nt	13%
Cc1cccc(C(=O)N2c3ccccc3C(=O)OC2c2ccc3c(c2)OCO3)c1 (stereo unspecified)	1.5%	-10%	0	-31	-1.3	3%	-25%
